Assay outcomes from PubChem.
RVFV N-RNA inh: RVFV nucleocapsid-RNA interaction inhibition; P21700; RVFV N-RNA binding, fluorescence polarization; active compounds read low; % bound, % (no concentration beside the values); hit rate 0.1% among 20,000;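 active means between 0 and 58% in either replicate with normal brightness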;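 further: 100 nL library stock added to about 12 µL; 100% = protein and probe without compound and 0% = probe alone; numbers are from one replicate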
Target sequence (P21700 whole entry, looked up): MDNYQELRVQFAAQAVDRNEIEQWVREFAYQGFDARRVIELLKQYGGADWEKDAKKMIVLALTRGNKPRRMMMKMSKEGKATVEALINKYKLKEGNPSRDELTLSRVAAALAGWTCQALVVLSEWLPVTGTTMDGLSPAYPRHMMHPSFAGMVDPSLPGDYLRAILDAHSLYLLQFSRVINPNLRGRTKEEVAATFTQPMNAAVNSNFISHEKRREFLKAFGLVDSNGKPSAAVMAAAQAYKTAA
* = called active by the depositor; & = joins results of further samples. The list is partial. The share of hits here may be higher or lower than overall.

SMILES	RVFV N-RNA inh
O=S(=O)(NCC1CCCO1)c1ccc(N2CCOCC2)nc1 (stereo not drawn)	103
COC(=O)NC1CS(=O)(=O)CC1NC(=O)OC (stereo not drawn)	97
COc1ccc(OC(C)C(=O)NCc2ccc3c(c2)OCO3)cc1 (stereo not drawn)	92
O=C(O)c1ccccc1-c1ccccc1C(=O)O	108
O=C(Nc1ccccc1N1CCOCC1)c1cc2sc3ccccc3c2s1	96
CCc1c(C)nc(SCC(=O)N2CC(C)OC(C)C2)[nH]c1=O (stereo not drawn)	97
N#C/C(=C(/O)CN1CCOCC1)c1nc2ccccc2s1	100
Cc1cc(=O)oc2c(C)c(OCC(=O)OC(C)C)ccc12	103
CC(C)NC[C@H](O)COc1cccc2[nH]ccc12	98
O=C(NCCN1CCN(Cc2ccccc2C(F)(F)F)CC1)Nc1ccccc1	93
O=C(c1ccc(Cl)cc1)N1CCS(=NS(=O)(=O)c2ccc(Cl)cc2)CC1	97
Cc1ccc(C)c(NC(=O)CSc2ncnc3c2oc2ccccc23)c1	97
CCC1(CC)C(=O)NC(=S)N(C)C1=O	94
N#CC1C(c2cccs2)C(C(N)=O)C(=O)NC1(O)c1ccccc1 (stereo not drawn)	88
CCOC(=O)C1CCCN(Cc2cccc(C)c2)C1 (stereo not drawn)	104
CCOC(=O)c1cc(NS(=O)(=O)c2ccccc2)ccc1N1CCCCC1	100
CC(C)(C)C(=O)CC(O)(c1ccccc1)C(F)(F)F (stereo not drawn)	102
O=C(c1cccc(Cl)c1Cl)N1CCOCC1	85
O=C(O)C(Cc1c[nH]c2ccccc12)N1C(=O)C2C3C=CC(C3)C2C1=O (stereo not drawn)	95
Cc1coc2c(Cl)cc(Cl)cc2c1=O	96
Cc1ccc2cc(CCC(=O)O)c(=O)[nH]c2c1	96
C=CCn1c(NCCO)nc2sc3c(c2c1=O)CCC3	91
CC(C)OC(=O)c1cc(C(=O)O)c(C(=O)OC(C)C)cc1C(=O)O	92
CN(C)CCOc1ccc(/C(=C(/CCCl)c2ccccc2)c2ccccc2)cc1	99&99&100
CC(C)(O)C#Cc1ccc(C(=O)N2CCCC2C(=O)O)s1 (stereo not drawn)	97
Going on with the list:
SMILES	RVFV N-RNA inh
O=C(Nc1ccccc1)N1CCCCC1c1cccnc1 (stereo not drawn)	92
CC(C)(C)C(=O)Nc1sccc1C#N	91
CN(C1=NC(=O)/C(=C2/C(=O)N(C)c3ccccc32)S1)c1ccc(Cl)cc1	94
O=S(=O)(CCc1ccccc1)c1ccccc1	100
c1ccc2c(COn3nnc4ccccc43)cccc2c1	89
NCCS	99
CC(Nc1ccccc1)N1C(=O)CCC1=O (stereo not drawn)	80
CCCn1c(=O)c(-c2noc(-c3ccc(Cl)cc3)n2)nn(-c2ccccc2)c1=O	99
COC(=O)COc1ccc(S(=O)(=O)c2ccc(OCC(=O)OC)cc2)cc1	85
NC(=O)c1nn(-c2ccccc2)c(=O)cc1O	96
C[C@@H]1CN(CCCn2c3ccccc3c3ccccc32)C[C@H](C)N1	97
Cc1cc(OCC(=O)c2ccc(F)cc2)ccc1N1C(=O)CCC1=O	101
COC(=O)CSC1=C(C#N)C(c2cccc(Cl)c2Cl)C2=C(CCCC2=O)N1 (stereo not drawn)	95
CC(=O)Oc1c(C(C)(C)C)ccc(C(C)(C)C)c1O	100
COc1cc(C)c(Cc2cnc(N)nc2N)cc1OC	103
CCN(c1ccccc1)c1cc2ccccc2c(=O)[nH]1	94
Cc1ccc(NC(=O)NCCCN2CCCC2=O)cc1	96
O=C(Nc1cc(=O)[nH]c(=O)[nH]1)c1cc(Br)ccc1Cl	99
COCC(C)N=Cc1c(O)[nH]c2ccccc12 (stereo not drawn)	104
CN(C)C(=O)Nc1cccc(O)c1	101
Cc1nnsc1C(=O)Nc1cccc(C(F)(F)F)c1	101
O=C(CC(F)(F)F)Nc1ccccn1	94
Cc1ccc(C)c(NC(=O)CSc2c(C)n[nH]c2C)c1	98
CC12NC(Cc3ccccc31)c1ccccc12 (stereo not drawn)	98
O=C(COc1ccccc1)c1ccc(O)c(O)c1O	95
Remaining list, next part
SMILES	RVFV N-RNA inh
CCCCc1ccc(-n2nc3cc(C)c(NC(=S)NC(=O)c4ccco4)cc3n2)cc1	89
CSC1=NCCN1C(=O)c1ccc(S(=O)(=O)N2CCCC2)cc1	93
Cc1ccc(NC(=O)CNC(=O)c2ccc(Br)o2)c(C)c1	107
CCOC(=O)C1=C(N)Oc2c(c(C)nn2-c2ccccc2)C12C(=O)N(C)c1ccccc12 (stereo not drawn)	91
COC(=O)c1ccc(N=Cc2cccs2)cc1	93
Cc1cccc(-n2c(Cc3cc(=O)[nH]c(=O)[nH]3)nnc2SCC(=O)NC2CCCC2)c1	94
CS(=O)(=O)c1cccc(S(=O)(=O)Nc2cccc(C(F)(F)F)c2)c1	93
C=CCN1C(=O)C(CC(=O)NCC(=O)O)SC1=Nc1ccc(Cl)cc1 (stereo not drawn)	102
C#CCOC(=O)Nc1ccc(Cl)c(Cl)c1	102
CC1(C)C2CC1[C@](C)(O)[C@H](O)C2 (stereo partly drawn)	97
Cc1c(NC(=S)N2CCN(c3ccc(F)cc3)CC2)c(=O)n(-c2ccccc2)n1C	92
Fc1cc(F)c2nc(N3CCOCC3)sc2c1	90
Cn1c(SCc2cccc(-c3noc(-c4ccc(Cl)cc4)n3)c2)nnc1C(F)(F)F	106
Cc1ccc(-n2c(=O)c3oc4ccccc4c3n(CC(=O)NC(C)(C)C)c2=O)cc1	101
O=C(COc1coc(CN2CCc3ccccc32)cc1=O)c1ccccc1	92
CCN(CCO)C(=O)C12CCC(C)(C(=O)C1)C2(C)C (stereo not drawn)	92
COc1ccc2cc(CCNC(=O)C3CCCCC3)c(=O)[nH]c2c1	97
CN(c1ccccc1)S(=O)(=O)c1cccs1	99
CN(C(=O)CNC(=O)c1ccc(Cl)cc1)C1CCCCC1	99
CCOC(F)(C(N)=O)C(F)(F)F (stereo not drawn)	98
O=C(Nc1nccs1)c1ccccc1NS(=O)(=O)c1ccc(F)cc1	115
CC(C)(C)NC(=O)c1cnc2n(c1=O)CCS2	94
CCOC(=O)c1c(O)cc2ccccc2c1O	92
COc1cc(C)nc(NN)n1	96
C=CCn1nnnc1SCC(=O)c1ccc(Cl)c(Cl)c1	95

Among those listed so far, these have bromine:
SMILES	RVFV N-RNA inh
O=C(Nc1cc(=O)[nH]c(=O)[nH]1)c1cc(Br)ccc1Cl	99
Cc1ccc(NC(=O)CNC(=O)c2ccc(Br)o2)c(C)c1	107

Additional compounds follow:
SMILES	RVFV N-RNA inh
CS(=O)(=O)Nc1cccc(C2=NN(C(=O)CCC(=O)O)C(c3cccc(F)c3)C2)c1 (stereo not drawn)	108
Cn1c2nc3ccccc3nc2c2c(=O)n(C3CCCC3)cnc21	94
CC(=O)N[C@@H](CS)C(=O)O	111
Cc1nn(-c2ccccc2)c2[nH]cc(C(=O)Nc3ccccc3)c(=O)c12	97
C(=C\c1ccccc1)/CN1CCN(C(c2ccccc2)c2ccccc2)CC1	91
O=C(O)C1CCC(=O)N(C2CCCCC2)C1c1ccccc1Cl (stereo not drawn)	93
COC(=O)c1cc(OCc2c(C)noc2C)cc(C(=O)OC)c1	86
Cc1ccc(C(=O)N(CC(C)C)CC(C)C)cc1C	93
COC(=O)Nc1ncc(CN2CCCCC2)s1	95
O=C1NC(c2cccc([N+](=O)[O-])c2)=CCN1c1ccccc1O	97
Cc1nn(C)c2c(=O)c(=O)c2n(C)[nH]1	91
COc1ccc(C2C(C#N)C(C#N)N3CCCN23)cc1 (stereo not drawn)	96
OC1CCCCC1Sc1nc2ccccc2s1 (stereo not drawn)	92
NC(=O)c1cc(-c2cccnc2)no1	89
Cc1cc(C)c2cc(C(=O)Nc3ccc4c(c3)OCO4)[nH]c2c1	95
NC(C(=O)O)c1cc(=O)[nH]o1 (stereo not drawn)	102
COc1ccc(-c2n[nH]c(=S)n2/N=C/c2ccccc2Br)cc1OC	94
COc1cc2c(cc1OC)C(C)N(C(=O)NC1CC(=O)N(c3ccc4c(c3)OCCO4)C1)CC2 (stereo not drawn)	104
Cc1onc(-c2ccccc2)c1C(=O)N=S(C)(C)=O	99
CN1CCC(=NNC(=O)CN(c2ccccc2)S(=O)(=O)c2ccccc2)CC1	90
CN1C(=O)C2(OCC(COc3ccc(Cl)cc3)O2)c2ccccc21 (stereo not drawn)	96
CCc1ccc(NC(=O)CSC2=NC3C(=O)N(C)C(=O)N(C)C3N2C)cc1 (stereo not drawn)	97
N#Cc1sc2nc3ccccc3n2c1N	93
Cc1ccc(S(=O)(=O)/N=C(\c2ccccc2)N2CCCC2)cc1	101
CCCCCCCC1N[C@H](C(=O)O)CS1 (stereo partly drawn)	96

Gathered by group, the compounds so far containing a cyano group (6)
SMILES	RVFV N-RNA inh
N#C/C(=C(/O)CN1CCOCC1)c1nc2ccccc2s1	100
N#CC1C(c2cccs2)C(C(N)=O)C(=O)NC1(O)c1ccccc1 (stereo not drawn)	88
CC(C)(C)C(=O)Nc1sccc1C#N	91
COC(=O)CSC1=C(C#N)C(c2cccc(Cl)c2Cl)C2=C(CCCC2=O)N1 (stereo not drawn)	95
COc1ccc(C2C(C#N)C(C#N)N3CCCN23)cc1 (stereo not drawn)	96
N#Cc1sc2nc3ccccc3n2c1N	93

The list goes on:
SMILES	RVFV N-RNA inh
Cn1cc(C(CC(=O)O)C(=O)O)c2ccccc21 (stereo not drawn)	100
Cc1oc2c(F)c(F)c(F)c(F)c2c1S(=O)(=O)Nc1cccc(C(F)(F)F)c1	93
Cc1cccc(-c2[nH]ncc2-c2ccc3ncccc3n2)n1	88
COC(=O)c1c(NC(=O)c2ccoc2C)sc2c1CCCCC2	93
CCOC(=O)c1ccsc1NC(=O)CSc1ccccc1	94
CCC(CC)C(=O)NCc1ccccc1	94
CCCCC[C@H](O)/C=C/[C@@H]1[C@@H](C/C=C\CCCC(=O)O)[C@@H](O)C[C@H]1O	94
Cc1ccc([N+](=O)[O-])cc1S(=O)(=O)N(C)/N=C/c1cnc2ccc(Br)cn12	102
CCc1ccccc1Nc1nc(-c2c(C)nc3sccn23)cs1	109
COc1cc2nc(C)[nH]c2cc1OC	94
N#Cc1c(N)ncc2c1CCCC2	95
Cc1cnc(N)c(C)n1	97
O=C(Cc1cccs1)N1CCN(c2ccccn2)CC1	101
N#CCCSc1nccn1Cc1ccccc1	106
C[C@@H]1CN(c2c(F)c(N)c3c(=O)c(C(=O)O)cn(C4CC4)c3c2F)C[C@H](C)N1	100
N#Cc1c(Cl)cccc1-n1ccnc1	91
CC(C)NC(=O)CSc1nc(-c2ccccc2)cc(=O)[nH]1	97
c1cc2cn[nH]c2cc1NC1CCCCCC1	110
COc1cc2c(cc1OC)C(C)N(C(=O)c1ccco1)CC2 (stereo not drawn)	93
CC(C)(C)NC(=O)c1cccc2ccccc12	109
Cc1nccnc1N1CCCCC1	97
CCCc1noc2c1/C(=N\O)CC(CC(C)SCC)C2 (stereo not drawn)	85
O=C(Nc1ccc(N2CCCC2)cc1)c1ccccc1Cl	102
Cn1ccc(N2C(=O)c3ccccc3C2=O)n1	93
CN(C(=O)CN1CCOCC1)n1cnc2ccsc2c1=O	99

Reformatted field by field: entries from further up.
> CCC(CC)C(=O)NCc1ccccc1
  RVFV N-RNA inh: 94
> CCCCC[C@H](O)/C=C/[C@@H]1[C@@H](C/C=C\CCCC(=O)O)[C@@H](O)C[C@H]1O
  RVFV N-RNA inh: 94
> Cc1ccc([N+](=O)[O-])cc1S(=O)(=O)N(C)/N=C/c1cnc2ccc(Br)cn12
  RVFV N-RNA inh: 102
> CCc1ccccc1Nc1nc(-c2c(C)nc3sccn23)cs1
  RVFV N-RNA inh: 109

(next part)
SMILES	RVFV N-RNA inh
CNC(=O)NCc1c(F)cccc1Cl	99
Cn1c(=O)c2c(nc3oc(C(C)(C)C)cn32)n(C)c1=O	109
CC(=O)OCC(=O)[C@@]12N=C(C)O[C@@H]1CC1C3CCC4=CC(=O)C=C[C@]4(C)C3[C@@H](O)C[C@@]12C (stereo partly drawn)	96
O=C1Nc2ccc3ncsc3c2/C1=C/c1cnc[nH]1	92
COC(=O)C1CC2=CC(=O)CCC2(C)C2C(O)CC3(C)C(CCC34CCC(=O)O4)C12 (stereo not drawn)	103
CSC1=N/C(=C\c2ccccc2)C(=O)S1	90
CCn1nnc2c(N3c4ccccc4CC3C)ncnc21 (stereo not drawn)	95
O=C(COc1ccc(Cl)cc1)Nc1ccc2oc(-c3c(F)c(F)c(F)c(F)c3F)nc2c1	112
Oc1[nH]c(=S)sc1N=Nc1ccc(F)cc1F	96
COc1ccc(CCNC(=O)CSc2nnc(C)s2)cc1OC	94
CCN1CCC(NCc2ccccc2C(F)(F)F)CC1	104
CC(C)(Oc1ccc(C2CC2(Cl)Cl)cc1)C(=O)O (stereo not drawn)	100
Clc1ccccc1-c1nnc2sc(Nc3ccccc3)nn12	98
O=C(c1cccs1)c1cn(Cc2ccccc2Cl)c2ccccc12	109
CN(C)C(CC(=O)Nc1ccc(Cl)c(Cl)c1)C(=O)O (stereo not drawn)	96
CN1C(=O)C(CC(=O)Nc2ccc3c(c2)Cc2ccccc2-3)N(C)C1=O (stereo not drawn)	98
COc1c(F)c(F)c(/C=C/CN2CCOCC2)c(F)c1F	94
S=C(Nc1cccc2ccccc12)NN1CCOCC1	95
N#C/C(=C\c1ccc(-c2ccc(S(N)(=O)=O)cc2)o1)S(=O)(=O)c1ccccc1	102
Cc1c(O)ccc(C(=O)CN2CCN(Cc3ccccc3)CC2)c1O	90
CCCc1nn(C)c2c(=O)[nH]c(-c3cc(S(=O)(=O)N4CCN(C)CC4)ccc3OCC)nc12	96&102
COC(=O)[C@H]1[C@H]2C[C@@H]3c4[nH]c5cc(OC)ccc5c4CCN3C[C@H]2C[C@@H](OC(=O)c2cc(OC)c(OC)c(OC)c2)[C@@H]1OC	94
Cc1cc2c(=O)[nH]nc(N)c2c(=O)[nH]1	91
